Rce1 inh – inhibitors of yeast Ras-converting enzyme; Q03530; yeast membranes, quenched prenylated peptide cleavage fluorescence; calls only; actives 0.27% (n = 290,000); AID 2563;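 active means fall in fluorescence gain of 50% or more versus controls, with final raw signal at or below 3038400; inconclusive means same 50% fall but final raw signal above 3038400; inactive means fall in fluorescence gain under 50%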;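 further: plate controls were neutral control wells for no effect and wells lacking membranes for full effect; tested at 10 µM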
Target sequence (Q03530 whole entry, looked up): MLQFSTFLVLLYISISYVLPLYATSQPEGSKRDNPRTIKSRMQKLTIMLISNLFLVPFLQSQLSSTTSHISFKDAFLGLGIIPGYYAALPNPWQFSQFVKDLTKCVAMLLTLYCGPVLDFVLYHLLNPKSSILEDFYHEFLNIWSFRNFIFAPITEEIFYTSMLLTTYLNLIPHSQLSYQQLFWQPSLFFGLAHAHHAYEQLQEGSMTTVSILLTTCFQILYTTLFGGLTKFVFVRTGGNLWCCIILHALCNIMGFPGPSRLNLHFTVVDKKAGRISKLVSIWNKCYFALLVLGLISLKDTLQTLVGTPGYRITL
Env fusion inh – blocks HIV Env-driven cell-cell fusion | HeLa-JRFL Env/CEM21 cell fusion, luciferase | AID 651610 | inhibition, % at 12.3 µM | actives 1.1% (n = 360,000);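 active means mean replicate inhibition score of at least 50 and every replicate individually at or above 50; inconclusive means only one of the two criteria met; inactive means mean below 50 and not all replicates reaching 50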;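 further: 0% = plate neutral controls and 100% = maraviroc near 300 nM; one replicate is shown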
PABP polyA inh – PABP-poly(A) binding inhibition; actives 1% (n = 290,000); P11940; inhibition, % at 35 µM; PABP-poly(A) RNA binding, fluorescence polarization;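 active means 50% or more with normal probe brightness, or confirmed in later tests; inconclusive means above 50% with abnormal brightness, or retests that disagree; inactive means below 50% or failed in later tests; about a fifth of its hits are not listed in these tables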;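 further: calls also rest on retests at 20 µM and on dose response follow-up; controls were probe without protein and protein plus probe with vehicle; some compounds called inactive have numbers as strong as hits; many hits fall short of the cut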
Yeast UUG start – alters start codon recognition fidelity in yeast. S. cerevisiae UUG-firefly luciferase reporter, luminescence/redox ratio. activity score, % at 18.7 µM. actives 0.13% (n = 350,000);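 active means replicate mean at a twofold rise or more, about +100% in these data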;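 further: firefly luciferase made from a UUG start codon reports start codon fidelity; reporter light over untreated wells divided by growth signal over untreated wells; some hits fall short of that in this replicate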
eIF4H inh – inhibitors of RNA binding by human eIF4H; actives 0.94% (n = 290,000); AID 2012; eIF4H fluorescence polarization binding assay; inhibition, % at 35 µM; Q15056;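 active means 50% or more with normal probe brightness, or confirmed in later tests; inconclusive means above 50% with abnormal brightness, or retests that disagree; inactive means below 50% or failed in later tests; about a fifth of its hits are not listed in these tables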;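 further: calls also rest on retests at 20 µM and on dose response follow-up; 0% = protein and probe with vehicle and 100% = probe without protein; strong numbers were not always called active; many hits fall short of the cut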
MT1-MMP act inh – MT1-MMP (human) activation inhibition; HT1080 RFP-PRO-GFP cells, GFP/RFP ratio fluorescence, overnight; percent of plate control window, DMSO zero; GFP/RFP ratio change, % at 20 µM; actives 0.061% (n = 360,000);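 active means GFP/RFP ratio change of at least 30% with cell ATP level not reduced by more than half and red fluorescence within 50% of control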; further: strong numbers were not always called active
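Assay system – RFP-PRO-GFP reporter HT1080 cells · Compound dosing – single dose of 20 µM compound, 1% DMSO final · Incubation – overnight compound exposure at 37 °C · Measure – GFP/RFP fluorescence ratio · Benchmarks – DMSO wells and RFP-L50D-GFP cells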
CSC inhib – cancer stem cell inhibition. actives 1.1% (n = 300,000). inhibition, % at 7.5 µM. cancer stem cell-like cells viability, luminescence. AID 2717;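 active means mean at 75% or more and at least half the replicates too; inconclusive means mean and replicates disagree; tested in HMLE shEcad cells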;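 further: 0% = median of negative and 100% = median of positive control wells; the first replicate is given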
MT1-MMP act inh RFP – also measured in MT1-MMP act inh; calls as there; RFP signal change, %; measured here: RFP expression control read;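 0 = vehicle wells; hits needed this value within 50% of zero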
* marks the source's active call; other numbers are inactive results; i = inactive; ? = inconclusive; nt = no result given; + = active, no number.

Under each structure: Rce1 inh	Env fusion inh	PABP polyA inh	Yeast UUG start	eIF4H inh	MT1-MMP act inh	MT1-MMP act inh RFP	CSC inhib
1: CCOC(=O)c1cnn(-c2ncnc3sc(C)c(C)c23)c1N
  i	nt	-8	-15	-6	-4	3	-5
2: CCOC(=O)c1cnc(-n2cc(C)cn2)nc1NCc1ccc2c(c1)OCO2
  i	4	-4	-17	-17	-9	-11	-7
3: COc1cccc(NC(=O)C2CC2(c2cccc(OC)c2)c2cccc(OC)c2)c1 (stereo unspecified)
  i	-13	-16	-8	3	-11	-6	nt
4: Cc1c(O)c(S(=O)(=O)c2ccccc2)c(=O)n(-c2ccccc2)c1-c1ccccc1
  i	-105	8	-1	5	2	4	-9
5: CCCC(=O)N1CCc2cc(OC)c(OC)cc2C1COc1ccccc1OC (stereo unspecified)
  i	12	-1	8	-3	0	0	-7
6: CC(=O)c1sc(-c2ccccc2)cc1N
  i	-11	6	-13	-4	-2	-4	1
7: O=C(C1CCN(S(=O)(=O)c2cnc[nH]2)CC1)N1CCn2c1nc1ccccc12
  i	nt	-3	-12	-5	1	1	11
8: COc1ccc(N2CCN(C(=O)Cn3c(=O)c4cccn4c4cccnc43)CC2)cc1
  i	4	16	-4	15	-4	-7	-2
9: O=C(COc1ccc2ccc(=O)oc2c1)NCc1ccccn1
  i	-5	10	-5	-1	1	4	17
10: COc1cc(/C=N/Nc2ccccc2[N+](=O)[O-])cc(OC)c1O
  i	-15	5	7	-7	12	-10	19
11: COc1ccc(CNC(=O)CCn2c(=O)oc3ccccc32)c(OC)c1
  i	-5	?	-6	10	1	-1	-5
12: CCC(=O)Nc1cccc2ccccc12
  i	34	-5	-6	-3	5	3	-5
13: CCN(C(=O)CCS(=O)(=O)c1ccc2c(c1)oc(=O)n2C)c1ccc(OC)cc1
  i	-1	4	-14	4	-1	1	0
14: CC1=CCC(C(=O)O)C(C(=O)O)C1 (stereo unspecified)
  i	-23	-9	-9	-7	5	0	-23
15: C=C(C)Cn1c(=O)c(NC(=O)c2ccccc2)c2n(c1=S)CCC2
  i	-20	-1	6	-1	-1	-1	7
16: CCC1CCCCN1CCCNC(=O)CSc1nc2nc(C)c(Cc3ccccc3Cl)c(C)n2n1 (stereo unspecified)
  i	8	nt	-9	nt	-1	3	4
17: COc1ccc(S(=O)(=O)NNC(=O)C2Cc3c(ccc4ccccc34)O2)cc1 (stereo unspecified)
  i	85*	25	-3	27	4	-7	-8
18: O=C(CNC(=O)C12CC3CC(CC(C3)C1)C2)Nc1ncccc1O
  nt	-19	nt	-10	nt	3	5	nt
19: COc1ccccc1/C=C/C(=O)NCC(=O)N/N=C(\CCC(=O)O)c1ccccc1
  i	-3	-11	nt	-12	-2	2	nt
20: Cc1cc(OCC(=O)Nc2ccc(CN3CCCCC3)cc2)ccc1Cl
  i	1	-7	nt	2	1	3	-1
21: O=C(OCC(=O)N1CCCCC1)c1ccc2ccccc2n1
  nt	-8	nt	-17	nt	-3	4	0
22: O=C(COC(=O)c1ccc2c(c1)OCCO2)NCCC1=CCCCC1
  i	nt	4	-10	-3	1	-1	-6
23: Cc1nn(-c2ccccc2)c(C)c1/C=N/n1cnnc1
  i	-3	-2	nt	3	-2	3	-3
24: CCCOc1ccc2ccccc2c1/C=C1\SC(=O)NC1=O
  i	14	8	-9	8	3	-9	56
25: CCC(=O)NC(=S)NNC(=O)COc1ccc(Br)cc1
  i	2	4	nt	13	3	5	23
26: O=C(CN1CCN(c2ccc(Cl)cc2)CC1)Nc1cccc(F)c1
  i	nt	3	-4	-8	1	-5	-1
27: CCOC(=O)C1=C(C)NC(SC)=NC1c1ccccc1 (stereo unspecified)
  i	1	-6	-5	3	3	17	5
28: COc1ccc(-c2nnc(SCc3cc(C)cc(C)c3)o2)cc1
  i	nt	-6	15	4	3	-2	25
29: O=C(CN1CCN(S(=O)(=O)c2ccc(Br)cc2)CC1)N/N=C/c1ccccc1C(=O)O
  i	0	nt	-8	nt	2	5	-8
30: O=C(O)c1cccc(Nc2nc(C(F)(F)F)nc3ccccc23)c1
  i	2	6	nt	-10	-1	4	15

Full records, quoted from the list. Order of values: Rce1 inh | Env fusion inh | PABP polyA inh | Yeast UUG start | eIF4H inh | MT1-MMP act inh | MT1-MMP act inh RFP | CSC inhib
`CCC1CCCCN1CCCNC(=O)CSc1nc2nc(C)c(Cc3ccccc3Cl)c(C)n2n1` (stereo unspecified) is listed as i | 8 | nt | -9 | nt | -1 | 3 | 4
`COc1cc(/C=N/Nc2ccccc2[N+](=O)[O-])cc(OC)c1O` is listed as i | -15 | 5 | 7 | -7 | 12 | -10 | 19

5 compounds from above, sorted by the value under Yeast UUG start, high to low:
entry	Molecule	Yeast UUG start
28	COc1ccc(-c2nnc(SCc3cc(C)cc(C)c3)o2)cc1	15
8	COc1ccc(N2CCN(C(=O)Cn3c(=O)c4cccn4c4cccnc43)CC2)cc1	-4
29	O=C(CN1CCN(S(=O)(=O)c2ccc(Br)cc2)CC1)N/N=C/c1ccccc1C(=O)O	-8
24	CCCOc1ccc2ccccc2c1/C=C1\SC(=O)NC1=O	-9
21	O=C(OCC(=O)N1CCCCC1)c1ccc2ccccc2n1	-17

Quoted from the listing.
CSC inhib, #4 : -9
PABP polyA inh, #19 : -11
CSC inhib, #28 : 25
Env fusion inh, #16 : 8
MT1-MMP act inh, #23 : -2

The main list resumes, starting four compounds before the break.
Under each structure: Rce1 inh	Env fusion inh	PABP polyA inh	Yeast UUG start	eIF4H inh	MT1-MMP act inh	MT1-MMP act inh RFP	CSC inhib
27: CCOC(=O)C1=C(C)NC(SC)=NC1c1ccccc1 (stereo unspecified)
  i	1	-6	-5	3	3	17	5
28: COc1ccc(-c2nnc(SCc3cc(C)cc(C)c3)o2)cc1
  i	nt	-6	15	4	3	-2	25
29: O=C(CN1CCN(S(=O)(=O)c2ccc(Br)cc2)CC1)N/N=C/c1ccccc1C(=O)O
  i	0	nt	-8	nt	2	5	-8
30: O=C(O)c1cccc(Nc2nc(C(F)(F)F)nc3ccccc23)c1
  i	2	6	nt	-10	-1	4	15
31: Cc1ccc(S(=O)(=O)NCC(=O)N(CC(=O)NCC2CCCO2)Cc2ccccc2Cl)cc1 (stereo unspecified)
  i	0	5	5	-11	-2	3	2
32: CCC(=O)N1CCc2cc(S(=O)(=O)CCC(=O)NCCc3ccccc3)ccc21
  i	-84	-3	-3	-4	1	-1	-9
33: CCN1CCN(C(=S)Nc2cc(C(=O)OC)ccc2C(=O)OC)CC1
  i	2	9	-7	-4	-1	1	-11
34: CC1CCN(C(=O)c2[nH]cnc2C(=O)Nc2cccc(Cl)c2)CC1
  nt	7	nt	-18	nt	5	-1	3
35: Cc1cc2cc(C#N)c(N3CCN(S(C)(=O)=O)CC3)nc2cc1C
  i	5	-6	44	-6	10	4	-2
36: CCn1c(SCC(=O)N2CCN(c3ccccc3)CC2)nnc1-c1ccoc1C
  i	-27	-7	7	3	4	-9	11
37: CCOC(=O)C1CCCN(CC(=O)NC2=Nc3ccccc3N=C(C)C2c2ccccc2)C1 (stereo unspecified)
  i	-59	-1	-1	-4	-7	-9	-3
38: COc1ccccc1NS(=O)(=O)c1ccc(C(=O)N2CCCC(C(F)(F)F)C2)cc1 (stereo unspecified)
  nt	-6	nt	27	nt	1	-2	-8
39: Cc1cc(Br)c2c(c1)C(O)(N1CCCCC1C)C(=O)N2 (stereo unspecified)
  i	nt	-2	nt	-5	1	2	4
40: COc1ccccc1NS(=O)(=O)c1cc(NC(=O)c2cccs2)ccc1N1CCCCC1
  i	-54	-3	nt	0	8	-4	-22
41: NC(=O)C1(N2CCCCC2)CCN(C(=O)Nc2ccccc2C(F)(F)F)CC1
  i	nt	4	nt	1	nt	nt	-12
42: Cn1c2cc(Br)sc2c2cnn(Cc3ccc(F)cc3F)c(=O)c21
  nt	5	nt	-13	nt	-2	-4	nt
43: Cc1cccc(N2CCN(C(=O)CNC(=O)Cc3ccccc3)CC2)c1C
  nt	nt	nt	-3	nt	3	-13	3
44: CCOc1ccc(NC(=S)N2CCC(N(C)CCN3CCOCC3)CC2)cc1
  i	14	0	nt	-14	2	2	5
45: Cc1ccc(C2NC(=O)CCC2[N+](=O)[O-])cc1 (stereo unspecified)
  i	1	9	nt	-5	-3	0	-5
46: CCC(NC(=O)CCc1c(C)c2cc3c(C)c(C)oc3cc2oc1=O)C(=O)N[C@@H](Cc1ccccc1)C(=O)O (stereo partly specified)
  i	nt	20	-18	2	4	7	-13
47: COc1ccc(-c2cn[nH]c2-c2ccc(OCc3ccc([N+](=O)[O-])cc3)cc2O)cc1OC
  i	-1	7	-16	-8	-6	-29	nt
48: O=C(c1cccc(S(=O)(=O)N2CCOCC2)c1)N1CCN(c2ccccc2)CC1
  nt	6	nt	-14	nt	2	8	1
49: Cc1cc(C)nc(SCC(=O)c2ccc([N+](=O)[O-])cc2)n1
  i	-37	1	-7	0	2	0	-7
50: O=C(CSc1nc(=O)[nH]c2c1CCCC2)Nc1ccc(F)cc1F
  i	6	nt	-18	nt	-5	0	-21
51: CCc1c(C)c2nncn2[nH]c1=O
  i	nt	16	-14	5	13	14	-1
52: COc1ccc(C(=O)Nc2ccc3c(c2)OCCO3)cc1
  nt	nt	-8	-50	-2	-8	3	11
53: O=C(NCCOc1nc(N2CCOCC2)nc(N2CCOCC2)n1)Nc1ccc(Cl)cc1
  i	27	2	-20	-6	1	-2	-12
54: N=C1CCCN1c1ccccc1O
  i	1	9	-6	3	3	-2	nt
55: Cn1c(N)c(C(=O)COC(=O)CNS(=O)(=O)c2ccc(Cl)c(Cl)c2)c(=O)n(C)c1=O
  i	-2	-4	-14	2	-2	1	nt
56: CC1(C)CC(=O)C(N=Nc2ccc(OC(F)F)cc2)=C(O)C1
  i	-20	0	nt	-7	3	3	-6
57: COCc1cc(CN2CCCC(C(=O)Nc3cccc(-n4cnnn4)c3)C2)ccc1OC (stereo unspecified)
  i	-12	-4	-10	2	-3	1	2
58: O=C(Cn1cnc2ccccc2c1=O)NC1CCS(=O)(=O)C1 (stereo unspecified)
  nt	-7	nt	10	nt	5	5	-16
59: C=CCn1c(=O)c2c(nc(-c3ccc(S(=O)(=O)O)cc3)n2C)n(C)c1=O
  +	nt	nt	-7	nt	1	1	-15
60: CC1=C(C(=O)OCC(C)C)C(c2ccc(Br)s2)NC(=O)N1 (stereo unspecified)
  i	10	22	nt	0	-1	-3	10
61: CC(C)CN=Cc1c(O)c([N+](=O)[O-])cc2oc3c(c12)CCCC3
  i	21	1	nt	?	-26	-5	-4
62: O=C(CCn1[nH]c(=O)c2ccccc2c1=O)NCCO
  i	nt	-7	-5	5	5	5	-10
63: CCOC(=O)Cc1csc(NC(=O)CSc2nnc(Cc3csc(N)n3)n2C)n1
  i	nt	9	-31	1	-2	-3	-6
64: CCOc1ccc(C2NC(=O)c3ccccc3O2)cc1OCC (stereo unspecified)
  i	8	4	0	-8	4	1	-7
65: Cc1ccc(S(=O)(=O)N2CCCCC2)cc1C(=O)OCC(=O)N1c2ccccc2NC(=O)C1(C)C
  nt	?	nt	-2	nt	-4	-4	-8
66: O=C(NCCC1CCCCN1S(=O)(=O)c1ccccc1)C(=O)NCC1CCCO1 (stereo unspecified)
  i	2	nt	-8	nt	3	-1	-7
67: Cc1c(CN(C)C)c2c(n1C)C(=O)c1ccc(Br)cc1-2
  i	-10	-9	-13	-12	4	11	3
68: COc1ccc(-c2ccc(N(C)C)cc2)cc1[C@H]1[C@H]2C=CC[C@@H](C)[C@@H]2C(=O)N1Cc1ccccc1
  i	25	2	-7	-8	-4	-15	34
69: COc1ccccc1C1CC(=O)NC(C)=C1C(=O)OCC(C)C (stereo unspecified)
  i	nt	-1	-2	-1	-1	-6	-1
